Screens deposited in PubChem BioAssay by several laboratories.
Ecoli growth: blocks Escherichia coli growth; OD600, 23 h; stronger effect = lower value; OD600 absorbance (no concentration beside the values); 330,000 tested, 0.21% active;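 active = OD600 absorbance below the run mean of sample wells minus 3.6 SD, in any replicate, cut at about 0.56 in these data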;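 note: stock transfer was 300 nL into about 60 µL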
Beta apoptosis: blocks beta cell apoptosis; INS-1E cytokine-induced death, ATP luminescence, 48 h; percent of positive-control rescue, neutral wells zero; protection from apoptosis, % (test concentration not listed); 300,000 tested, 0.8% active;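 active = all replicates at 75% or more, or half of them and the mean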;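 note: 0% = cytokine-treated negative control wells and 100% = positive control rescue; higher means more ATP so stronger rescue from cytokine killing; wells of about 40 µL received 100 nL stock; the first replicate is given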
UCH37 DUB inh: human UCH37 deubiquitinating enzyme inhibition. Q9Y5K5. purified proteasome/UCH37, Ub-AMC cleavage fluorescence. inhibition, % (concentration not given with the values). 330,000 tested, 0.33% active. AID 588478;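 active = mean of two replicates above 20%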;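 note: 0% = compound-free wells with enzyme and 100% = wells lacking proteasome; stock transfer was 100 nL into about 20 µL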
Target sequence (Q9Y5K5 whole entry, looked up): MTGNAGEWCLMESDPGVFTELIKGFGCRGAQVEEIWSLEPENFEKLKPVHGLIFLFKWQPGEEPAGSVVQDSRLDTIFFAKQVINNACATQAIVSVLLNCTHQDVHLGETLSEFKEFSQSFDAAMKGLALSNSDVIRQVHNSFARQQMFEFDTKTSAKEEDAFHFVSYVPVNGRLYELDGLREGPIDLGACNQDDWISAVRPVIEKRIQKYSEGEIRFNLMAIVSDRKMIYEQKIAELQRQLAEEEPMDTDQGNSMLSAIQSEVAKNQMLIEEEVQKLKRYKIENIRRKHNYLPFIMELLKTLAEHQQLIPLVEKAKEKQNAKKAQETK
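assay system = human UCH37 enzyme supplied as purified proteasome complex | amount = proteasome at 0.15 nM in the dispensed enzyme solution | schedule = 30 min compound-proteasome preincubation then 25 min substrate reaction, room temperature | measured by = fluorescence, ex 355 nm, em 460 nm | benchmarks = no-proteasome wells (full inhibition) and compound-free wells (no inhibition)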
T cruzi repl: blocks replication of Trypanosoma cruzi. T. cruzi beta-gal in NIH3T3, luminescence, 90 h. inhibition, % (concentration not given with the values). 300,000 tested, 1.4% active. AID 1885;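 active = mean inhibition across valid replicates above about 55%, limit read from the data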;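 note: signal also drops with host cell toxicity which is not excluded here; 0% = plate median of DMSO wells and 100% = zero luminescence signal; higher percent means less beta-gal luminescence so fewer parasites; stock transfer was 50 nL into about 50 µL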
FGF22 binding: binders of recombinant human FGF22 by thermal shift. SYPRO orange fluorescence; percent of sucrose octasulfate shift, DMSO zero. 340,000 tested, 1.5% active. calls only at 9.99 µM;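 active = melting point raised past a set limit in the mean and every replicate; three in four hits are not shown here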
Target sequence (Q9HCT0 whole entry, looked up): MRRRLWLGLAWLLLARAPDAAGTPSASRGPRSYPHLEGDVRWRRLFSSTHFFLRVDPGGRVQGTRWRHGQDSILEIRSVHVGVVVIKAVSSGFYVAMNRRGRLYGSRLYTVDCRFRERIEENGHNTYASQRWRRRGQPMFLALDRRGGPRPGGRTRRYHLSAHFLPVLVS
rRNA inh HTS: inhibitors of bacterial rRNA selective over humanized ribosomes; GFP signal change (wild-type ribosome), % (test concentration not listed); 350,000 tested, 1.6% active; AID 720706; E. coli WT GFP vs humanized-ribosome RFP mutants, fluorescence, 24 h; stronger effect = lower value; DMSO median 0, no signal -100;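 active = significant combined selectivity score with lowered wild-type GFP, culture density cut under 30%, mutant RFP and density less affected; inactive = any of these conditions unmet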; note: one replicate is shown; some compounds called inactive have numbers as strong as hits
A1 inh: inhibitors of the anti-apoptotic protein A1, read as caspase activation; MEF A1-2A-BIM cells, Caspase-Glo 3/7 luminescence, 3 h; percent of clofoctol response, vehicle zero; caspase activation, % (concentration not given with the values); 330,000 tested, 0.066% active; AID 2462;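 active = over half of replicate activation scores above 10%, or exactly half above 10 with the replicate mean above 10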;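 note: wells of about 30 µL received 50 nL stock; many hits fall short of the cut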
MLL AF4-AF9 inh: inhibitors of human MLL-AF4/AF9 interaction | inhibition, % at 10 µM | AID 651704 | 350,000 tested, 0.47% active | AlphaScreen, biotin-AF4 peptide binding to FLAG-AF9 | P42568;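 active = every replicate reaching a set inhibition limit, whatever the replicate mean, cut at about 25% in these data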;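 note: 0% = plate neutral control median and 100% = total signal loss; the record names both 10 and 1 µM as test concentration; the first replicate is given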
Target sequence (P42568 whole entry, looked up): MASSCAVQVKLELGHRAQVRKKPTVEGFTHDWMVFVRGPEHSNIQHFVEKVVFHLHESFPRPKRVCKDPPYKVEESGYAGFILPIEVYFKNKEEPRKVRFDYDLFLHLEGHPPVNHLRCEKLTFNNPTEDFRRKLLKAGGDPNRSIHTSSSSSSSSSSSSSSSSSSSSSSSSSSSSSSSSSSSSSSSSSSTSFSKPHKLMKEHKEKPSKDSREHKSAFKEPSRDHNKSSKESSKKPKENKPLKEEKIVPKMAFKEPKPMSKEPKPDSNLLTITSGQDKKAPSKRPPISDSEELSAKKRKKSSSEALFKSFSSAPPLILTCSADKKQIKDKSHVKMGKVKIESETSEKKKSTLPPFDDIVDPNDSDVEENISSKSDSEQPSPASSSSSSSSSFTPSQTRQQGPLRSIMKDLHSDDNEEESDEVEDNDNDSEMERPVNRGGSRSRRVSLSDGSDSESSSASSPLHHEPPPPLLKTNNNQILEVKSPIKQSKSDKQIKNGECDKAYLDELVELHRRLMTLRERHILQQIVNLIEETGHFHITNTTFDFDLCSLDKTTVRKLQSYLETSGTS
rRNA inh HTS OD600: second read-out of rRNA inh HTS, no call of its own (marks repeat the call); OD600 change, %; measured here: OD600 growth;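 optical density of the mix in the first replicate; 0 = DMSO median and -100 = no signal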
rRNA inh HTS RFP: also measured in rRNA inh HTS; calls as there; RFP signal change, %; measured here: RFP humanized mutant strains;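 first replicate; 0 = DMSO median and -100 = no signal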
* = called active by the depositor; i = inactive; . = no result given. Only part of the results is shown; the hit share may differ from the screen's.

SMILES	Ecoli growth	Beta apoptosis	UCH37 DUB inh	T cruzi repl	FGF22 binding	rRNA inh HTS	rRNA inh HTS OD600	rRNA inh HTS RFP	A1 inh	MLL AF4-AF9 inh
Cc1ccc(S(=O)(=O)NCC2CCC(C(=O)N3CCOCC3)CC2)cc1 (centres undefined)	0.68	-6	-1.5	0	i	3	-5	-0.1	0.2	-26
Cc1cc([N+](=O)[O-])ccc1NC(=O)CSc1nnc(C)n1C	0.65	-6	2.4	8	i	13	14	0.7	0.8	-2.3
COC(CNC(=O)C(=O)NCC1OCCN1S(=O)(=O)c1ccccc1)OC (centres undefined)	0.74	-2	2.9	-11	i	9	12	0.0	-1.3	0.0
COc1cc(/C=N/NC(=O)c2cc(-c3ccccc3)nc3ccccc23)cc(OC)c1O	.	-13	.	-14	i	9	6	0.8	0.8	13
c1ccc(COc2ccc(OCCN3CCCC3)cc2)cc1	0.64	-3	5.7	55*	.	.	.	.	1.1	.
CC(C)NC(=O)NC(=O)COC(=O)/C=C/c1ccc2c(c1)OCO2	0.67	-4	-26	-4	i	2	1	-1.3	-0.6	-3.0
CCOC(=O)Cn1c(=O)oc2cc(S(=O)(=O)N(CCN(C)C)Cc3ccccc3)ccc21	0.73	-2	3.3	-7	.	.	.	.	0.6	.
Fc1ccc(-c2csc(NC(=S)Nc3ccccc3)n2)cc1	0.67	.	2.9	29	i	-13	-10	0.7	0.3	-1.8
O=C(C[C@H]1C/C=C\C[C@H](NC(=O)OCC2c3ccccc3-c3ccccc32)C(=O)OC[C@@H]2CCCN2C1=O)NCCO	.	33	2.2	.	i	7	3	1.6	0.0	2.0
Cc1cc(=O)n2[nH]c(=O)c(N=Nc3ccccc3)c2[nH]1	0.75	5	3.8	-14	.	.	.	.	-4.9	.
O=C(O)CC1(CC(=O)O)Nc2ccccc2SC1=O	0.71	.	4.2	.	.	14	7	1.5	.	-6.2
O=C1/C(=C/c2ccccn2)SC(=S)N1N1CCOCC1	0.7	.	8.5	.	i	8	8	62	-1.9	0.2
COc1cccc(C(=O)Nc2nnc(-c3ccc(Cl)cc3)o2)c1	0.59	-3	4.7	-6	i	-55	-76	-16	-0.4	10
CCCNC(=O)Nc1cc(OC)c(OC)cc1Cc1nccc2cc(OC)c(OC)cc12	0.69	5	2.9	-1	i	5	10	1.0	-0.2	1.5
S=C(Nc1cc(Cl)ccc1Oc1ccccc1)N1CCN(c2ccccn2)CC1	0.68	7	0.9	-11	i	-34	-27	-3.7	1.5	1.2
COC(=O)CCc1c[nH]c2ccc([N+](=O)[O-])cc12	0.6	.	5.9	.	i	-9	-11	-3.1	.	2.4
CCOCCCNC(=S)N(CCO)Cc1cc2cc3c(cc2[nH]c1=O)OCCO3	0.68	-10	-91	-5	i	1	10	-0.6	-0.2	-2.9
Nn1c(SCC(=O)Nc2ccc3c(c2)OCCO3)nnc1C(F)(F)F	0.74	3	-1.5	6	.	.	.	.	-0.2	.
O=C(CN1CCCCC1)Nc1ccc(S(=O)(=O)N2CCCCCC2)cc1	0.66	7	-0.5	10	.	.	.	.	0.5	.
COc1ccc(NC2=CC(c3ccc(OC)c(OC)c3)N(c3ccc(OC)cc3)C2=O)cc1 (centres undefined)	0.74	0	-13	22	i	3	-2	-4.4	0.6	7.6

5 entries out of the list above, arranged by the value under UCH37 DUB inh, descending.
| compound | UCH37 DUB inh |
| --- | --- |
| O=C1/C(=C/c2ccccn2)SC(=S)N1N1CCOCC1 | 8.5 |
| O=C(O)CC1(CC(=O)O)Nc2ccccc2SC1=O | 4.2 |
| CCCNC(=O)Nc1cc(OC)c(OC)cc1Cc1nccc2cc(OC)c(OC)cc12 | 2.9 |
| S=C(Nc1cc(Cl)ccc1Oc1ccccc1)N1CCN(c2ccccn2)CC1 | 0.9 |
| CCOCCCNC(=S)N(CCO)Cc1cc2cc3c(cc2[nH]c1=O)OCCO3 | -91 |

More compounds:
SMILES	Ecoli growth	Beta apoptosis	UCH37 DUB inh	T cruzi repl	FGF22 binding	rRNA inh HTS	rRNA inh HTS OD600	rRNA inh HTS RFP	A1 inh	MLL AF4-AF9 inh
CC(=O)Oc1c(Cl)cc(Cl)cc1/C=C/c1ccc2ccccc2n1	0.73	13	-6.5	-11	.	.	.	.	1.5	.
COc1cccc(CNS(=O)(=O)c2c(C(=O)N3CCCCCC3)c(C)n(C)c2C)c1	0.68	-16	1.0	7	i	-1	-10	-1.9	0.4	1.1
COc1ccc(/C=C/C(=O)Nc2nc(N)n(-c3ccccc3)n2)cc1	0.7	2	8.9	-21	.	.	.	.	1.3	.
O=C(CNC(=O)c1cc2c(n(-c3ccccc3)c1=O)CCCC2=O)c1ccccc1	0.61	-20	0.2	-11	i	-7	2	-2.8	0.7	0.0
NC(=O)c1cc(S(=O)(=O)N2CCOCC2)ccc1N1CCCC1	0.66	2	0.2	-6	i	2	10	-0.5	0.0	-1.1
COc1cccc(/C=N/Nc2nc3ccccc3[nH]2)c1O	.	94*	.	48	i	-29	-39	9.2	-4.0	2.8
COC(=O)/C(=C/c1ccc(F)cc1)NC(C)=O	0.7	1	-11	-3	.	.	.	.	0.6	.
Cc1cc(C)n2nc(C(=O)N(C)C(c3ccccc3)c3ccccc3)nc2n1	0.69	-3	0.8	13	i	-1	3	-2.1	0.1	-1.4
CN(C)CCN(C(=O)c1ccc2c(c1)OCCO2)c1nc2ccc(Cl)cc2s1	0.69	-10	4.3	57*	i	-1	-7	7.0	0.2	12
CN=c1nc(-c2ccccc2)n(-c2ccccc2)s1	0.67	-3	3.7	.	i	.	.	.	-0.2	10
COc1cc(Nc2cc(C)nc3ncnn23)cc(OC)c1OC	0.68	-8	3.6	-13	i	2	10	-2.7	0.2	-0.1
N#Cc1c(NC(=O)c2ccc(Cn3cc(Br)cn3)o2)sc2c1CCCCC2	0.71	-9	-6.6	-10	.	.	.	.	-0.4	.
COC1=NS(=O)(=O)c2ccccc21	0.62	-9	2.8	3	i	9	3	-2.4	-1.0	2.3
[O-]/[N+](=C\c1ccncc1)c1ccc(Br)cc1	0.69	5	8.7	-9	.	.	.	.	-2.9	.
Cc1cc(-n2c(C)cc(C(=O)CSc3nc(N)cc(=O)[nH]3)c2C)no1	0.68	-4	2.8	-8	i	3	1	3.6	1.1	0.1
CN1CCN(S(=O)(=O)c2cccc(C(=O)Oc3cccc(C#N)c3)c2)CC1	0.64	.	4.7	-11	i	3	2	-3.6	-0.3	0.0
Oc1ccc(-c2nccc(-c3ccccn3)n2)cc1	0.65	-8	1.6	3	i	2	-7	-0.8	-0.4	-2.6
Cc1ccccc1-n1c(SCC(=O)N(C)C2CCS(=O)(=O)C2)nc2ccccc2c1=O (centres undefined)	0.74	-3	-0.8	-6	i	0	1	-0.3	0.2	-1.8
CCC(C)(C)NC(=O)Cn1c(-c2ccccc2)cc(C(C)=O)c1C	0.72	-5	1.3	-8	i	1	-1	1.2	-0.3	1.5
CCc1ccc(NC(=S)Nc2ccc(S(=O)(=O)Nc3ncccn3)cc2)cc1	0.68	-2	1.3	-4	.	3	-1	-2.6	-0.3	-1.9
CC(C)(C)NC(=O)COc1ccc(CNc2ncn[nH]2)cc1	0.71	3	-1.2	-7	i	9	1	-4.2	-0.1	-1.5
COc1ccccc1-n1c(-c2cc(-c3ccc(F)cc3)n[nH]2)n[nH]c1=S	0.7	-7	1.6	15	i	-31	-28	5.0	0.1	-6.7
CC(C)(C)C1CCC(C(=O)OCC(=O)N2CCN(C(=O)c3ccco3)CC2)CC1 (centres undefined)	0.7	-1	5.9	0	i	-22*	-15*	-6.2*	-0.2	-0.2
CCOc1ccccc1N1CCN(Cc2cc3c(cc2[N+](=O)[O-])OCO3)CC1	0.72	-3	4.8	10	i	-26	-19	-8.0	0.2	11
Nc1ccc(-c2nc3c(ccc4ccccc43)[nH]2)cc1	0.67	-1	i	47	i	-34	-29	-14	-2.0	8.1
Cc1c(NC(=O)c2ccc(Cl)c(S(=O)(=O)N3CCOCC3)c2)c(=O)n(-c2ccccc2)n1C	0.67	6	4.2	-1	.	.	.	.	-0.2	.
COc1cccc(NC(=O)C2Cc3ccccc3CN2C(=O)c2ccco2)c1 (centres undefined)	0.68	3	4.7	-1	i	6	8	-0.6	-0.7	-3.9
CCOC(=O)CNS(=O)(=O)c1c(C)noc1C	0.77	-1	-1.0	-14	.	.	.	.	2.6	.
CCOCCCNC(=O)C(c1ccc(OC)cc1)N(Cc1ccc2c(c1)OCO2)C(=O)c1cnccn1 (centres undefined)	0.72	-5	0.9	5	i	9	7	-0.1	0.4	3.5
Cc1noc(C)c1C(=O)Nc1nc(-c2ccc(F)c(F)c2)cs1	0.68	8	3.6	.	i	-9	-10	4.6	1.6	1.5
O=C(NCc1ccccn1)C(C(=O)c1ccc(F)cc1)n1ccccc1=O (centres undefined)	0.7	0	1.1	-35	.	.	.	.	0.7	.
O=C(/C=C/c1ccccc1)NCCS(=O)(=O)N1CCN(c2ccc(F)cc2)CC1	0.71	0	4.8	2	i	17	4	5.1	2.3	0.7
CCOC(=O)CSC1=NC(=O)/C(=C\c2ccc(Cl)cc2)S1	0.69	-2	5.1	-1	.	.	.	.	-3.0	.
COc1ccc(C2=CC(=O)CC(c3ccc(F)cc3)C2)cn1 (centres undefined)	0.7	2	3.6	-4	.	.	.	.	0.6	.
COc1ccc(NC(C)(C)c2nnnn2-c2c(C)cccc2C)cc1	0.69	9	1.6	-4	i	-25*	-11*	1.4*	0.4	5.1
Cc1ccccc1C(=O)N1CCN(c2ccc(NC(=O)c3cccc(OC(C)C)c3)cc2)CC1	0.73	11	-0.5	11	i	-5	-3	-0.3	-1.2	2.0
O=C(CN1CCOCC1)Nc1ccc(-c2nc3ccccc3[nH]2)cc1	0.66	2	-4.5	0	.	.	.	.	-1.9	.
COc1ccccc1CN(C)C(=O)CSc1nnc(C2CC2)n1C1CC1	0.69	0	4.6	.	i	13	5	1.4	0.4	1.8
Cc1nc(-c2ccc(S(=O)(=O)Nc3ccccc3C)cc2)co1	0.69	-6	2.8	-2	i	1	-4	1.3	-0.2	0.2
COc1ccc2c(ccc[n+]2[O-])c1	0.67	.	2.2	.	i	3	3	-0.3	.	-1.8
CN(c1ccc(OC(=O)CN2C(=O)NC3(CCCC3)C2=O)cc1)S(=O)(=O)c1ccccc1	0.64	-9	-0.7	-4	i	6	-3	-0.5	0.8	-1.5
O=C(Nc1ccc2c(c1)OCCO2)N1CCOCC1	0.65	-8	1.9	-16	i	13	5	1.3	0.0	-1.7

2 entries from above, reformatted.
SMILES: COc1ccc(/C=C/C(=O)Nc2nc(N)n(-c3ccccc3)n2)cc1
  Ecoli growth: 0.7
  Beta apoptosis: 2
  UCH37 DUB inh: 8.9
  T cruzi repl: -21
  FGF22 binding: .
  rRNA inh HTS: .
  rRNA inh HTS OD600: .
  rRNA inh HTS RFP: .
  A1 inh: 1.3
  MLL AF4-AF9 inh: .

SMILES: COc1ccc(NC(C)(C)c2nnnn2-c2c(C)cccc2C)cc1
  Ecoli growth: 0.69
  Beta apoptosis: 9
  UCH37 DUB inh: 1.6
  T cruzi repl: -4
  FGF22 binding: i
  rRNA inh HTS: -25*
  rRNA inh HTS OD600: -11*
  rRNA inh HTS RFP: 1.4*
  A1 inh: 0.4
  MLL AF4-AF9 inh: 5.1
